# RE007 growth inh – less growth of the S. pombe RE007 Vpr strain | Potency, µM (series often up to 92.2 µM), for inactives: top-dose activity change, negative = less growth | S. pombe RE007 Vpr strain, BacTiter-Glo ATP luminescence, 24 h; control for the full effect not named in the record | 0.21% of 360,000 active; active = well fitted falling curve with a large enough effect; inconclusive = small, poorly fitted or top-dose-only effect; inactive = no such curve, though single readings can be large or run the other way;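 also: % is scaled to controls: 0 for no effect and ±100 for the full control effect; nearly all actives have a fitted effect of over 50% in size; the assay follows cell death caused by Vpr and the record does not say whether a fall means rescue or toxicity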
#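 Fission yeast strain RE007, carrying one chromosomally integrated HIV-1 vpr copy, was seeded at OD 0.01 in PMG+AL medium with 23 nL pinned compound. After 24 h at 30 °C and 99% humidity, viability was read by BacTiter-Glo luminescence.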
# Cruzain Triton – inhibitors of Trypanosoma cruzi cruzain with detergent. purified cruzain, Z-FR-AMC fluorescence, 0.01% Triton. Potency, µM, for inactives: max response, negative = inhibition, actives largely listed as inhibitors. 0.43% of 200,000 active;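 also: plate controls were neutral wells for no effect and buffer without enzyme for full effect; nearly all actives have a fitted effect of over 40% in size; top concentration of the series not given in the record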
# Target sequence (P25779 123-467 limits assumed): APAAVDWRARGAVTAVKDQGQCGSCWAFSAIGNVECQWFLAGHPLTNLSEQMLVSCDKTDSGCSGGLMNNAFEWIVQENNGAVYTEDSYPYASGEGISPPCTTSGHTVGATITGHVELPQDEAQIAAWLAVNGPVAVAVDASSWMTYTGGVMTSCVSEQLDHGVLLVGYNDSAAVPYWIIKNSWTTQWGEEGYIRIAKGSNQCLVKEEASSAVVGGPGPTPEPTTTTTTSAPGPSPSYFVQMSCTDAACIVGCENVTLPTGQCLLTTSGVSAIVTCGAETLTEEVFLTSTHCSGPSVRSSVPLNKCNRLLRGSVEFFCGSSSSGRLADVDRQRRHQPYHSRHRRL
#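 Enzyme 1.5 nM, Z-FR-AMC 2 uM, NaOAc 100 mM pH 5.5, DTT 5 mM, Triton X-100 0.01%; 15 min RT compound preincubation; kinetic ex360/em450, 60 s delta.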
# Marburg entry inh – Marburg virus entry inhibition; Marburg virus pseudotyped entry inhibition, cell reporter; control for the full effect not named in the record; about a third of the inactives were read at about 46 µM; 1.8% of 300,000 active; Potency, µM (highest dose often 37.8 µM), for the others: at the highest dose activity change, negative = inhibition, actives largely listed as inhibitors; active = well fitted inhibition curve with a large enough effect; inconclusive = small, poorly fitted or top-dose-only effect, or effect the other way; inactive = flat fitted curve, though single readings scatter; tested in HEK293 cells; about a fifth of its hits are not listed in these tables; also: % is scaled to controls: 0 for no effect and ±100 for the full control effect; luciferase read-out
# 2A StopGo – FMDV 2A StopGo reporter, luciferase signal; human cells with a luciferase reporter of 2A StopGo recoding; control for the full effect not named in the record; 1.2% of 410,000 active; AID 1159524; Potency, µM (titrated, usually from 57.9 µM), inactives show at the top dose signal change, negative = less light; active = well fitted falling curve with a large enough effect; inconclusive = small, poorly fitted or top-dose-only effect; inactive = no such curve, though single readings can be large or run the other way; tested in HEK293T cells; also: % is scaled to controls: 0 for no effect and ±100 for the full control effect; nearly all actives have a fitted effect of over 45% in size; luciferase light after 4 h
# SARS PLpro yeast – blocks SARS-CoV papain-like protease in a yeast assay | Potency, µM (series often up to 32.9 µM), for the others: at the highest dose activity, positive = growth rescue | 0.19% of 330,000 active | AID 485353 | S. cerevisiae expressing SARS-CoV PLpro, growth rescue; control for the full effect not named in the record; active means well fitted rising curve with a large enough effect; inconclusive means small, poorly fitted or top-dose-only effect; inactive means no such curve, though single readings can be large or run the other way; also: 0% is about no effect; nearly all actives have a fitted effect of over 55% in size; growth read by luminescence after 48 h
# Cruzain noTriton – blocks cruzain activity in detergent-free assay; P25779; AID 1476; Potency, µM, for inactives: max response, negative = inhibition, usual class: inhibitors; purified cruzain, Z-FR-AMC fluorescence, no detergent; 2.3% of 200,000 active;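 also: plate controls were enzyme without inhibitor for no effect and buffer without enzyme for full effect; nearly all actives have a fitted effect of over 40% in size; top concentration of the series not given in the record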
#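 Purified cruzain at 1.5 nM, pre-incubated 15 min with compound at room temperature in 100 mM sodium acetate pH 5.5, 5 mM DTT, 0.00005% Triton X-100. Reaction started with 2 uM Z-FR-AMC; AMC fluorescence increase over 60 s gives rate.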
# * marks the source's active call; other numbers are inactive results; ? = inconclusive; . = no result given; & = joins results of further samples; ! = not confirmed by another sample; [ ] = another dose, or the depositor's remark. Unless noted, calls follow the shape of the dose curve; as a rule, active = well fitted curve in the direction sought with a large enough effect; inconclusive = small, poorly fitted or top-dose-only effect, or another doubt; inactive = no such curve, though single readings can be large; an effect the other way counts as inactive or inconclusive. Potency is read from the fitted curve at half-maximal effect. These rows are one share of the data; count on the stated rates, not on these rows.
Compound | RE007 growth inh | Cruzain Triton | Marburg entry inh | 2A StopGo | SARS PLpro yeast | Cruzain noTriton
CC(C)c1ccc2c(c1)CCC1C(C)(C(N)=O)CCCC21C (stereo not given) | . | -9.1% | . | 17.3% | . | 22.7%
N[C@H]1CCN(O)C1=O | . | -5.5% | . | -3.8% | . | -3.8%
c1ccc(CN2CCC3(CCNCC3)CC2)cc1 | . | 3.0% | . | -26.2% | . | 5.7%
CCCCC/C=C\C/C=C\CCCCCCCC(=O)NCC(=O)O | . | -4.1% | . | -8.6%[6.7 µM] | . | 11.6%
Cc1noc(C)c1C(=O)N1CCC2(CC1)CN(c1ccccn1)C2 | . | -4.0% | . | -13.1% | . | -9.5%
Nc1nc2c(nc(Cl)n2C2OC(CO)C(O)C2O)c(=O)[nH]1 (stereo not given) | . | 3.1% | . | -6.5% | . | 3.4%
CC(=O)Oc1ccc(Cl)c2cccnc12 | . | -3.9% | . | -17.3% | . | -18.1%
CN(Cc1ccco1)c1nc(-c2ccccc2Cl)nc2ccccc12 | . | 0.1% | . | -2.2% | . | -5.7%
COc1ccc(C(=O)N2CCC3(CC2)CN(C(=O)Nc2ccccc2)C3)cc1 | . | -0.3% | . | -1.0% | . | 2.5%
COc1ccc2[nH]cc(CCNc3ncncc3-c3ccc4c(c3)OCO4)c2c1 | . | -3.5% | . | 20µM* | . | -4.6%
Cc1noc(C)c1-c1nc(NCc2cccnc2)c2ccccc2n1 | . | 1.2% | . | -10.0% | . | 2.8%
O=C(c1cc(C(F)(F)F)cc(C(F)(F)F)c1)N1CCC2(CC1)CN(c1ccccn1)C2 | . | -9.9% | . | ? | . | 9.5%
CC(C)NC[C@@H](O)COc1ccccc1-n1cccc1 | . | -0.1% | . | -13.1% | . | -1.3%
O=c1c(-c2cc(F)cc(F)c2)nc2cnc(N3CCNCC3)nc2n1-c1ccccc1 | . | -18.4% | . | -22.0% | . | 15.5%
CN(C)c1ncc2nc(-c3cc(F)cc(F)c3)c(=O)n(CCc3ccccc3)c2n1 | . | -0.6% | . | -7.2% | . | -10.0%
CS(=O)(=O)N1CCC2(CCCN(Cc3ccc(C#N)cc3)C2)CC1 | . | 3.1% | . | -9.1% | . | 1.7%
CN(C)c1ncc2nc(-c3cccs3)c(=O)n(-c3ccccc3)c2n1 | . | -0.4% | . | -2.2% | . | -3.9%
COc1ccc(CNc2nc(-c3ccccc3CN(C)C)nc3ccccc23)c(OC)c1 | . | -0.9% | . | -15.2% | . | 3.7%
CC(=O)OC1CC(OC(C)=O)[C@]2(C)C(CC(=O)[C@]3(C)C2CC[C@@]2(C)C(c4ccoc4)OC(=O)C4O[C@@]423)C1(C)C (stereo not given in full) | . | 2.6% | . | -14.7% | . | ?
COc1ccccc1CN1CCCC2(CCN(C(=O)c3ccncc3)CC2)C1 | . | 1.7% | . | -2.1% | . | 3.6%
C[C@]12CCC(=O)C=C1CCc1ccc(O)cc12 | . | -2.3% | . | -12.3% | . | 2.9%
CC(=O)N1CCC2(CC1)CCN(c1ccccn1)CC2 | . | 3.7% | . | 2.4% | . | 5.3%
O=c1c(-c2ccc(F)cc2)nc2cnc(N3CCOCC3)nc2n1CCc1ccccc1 | . | 2.8% | . | 9.0% | . | 1.7%
Cc1nc2cnc(N(C)C)nc2n(CCc2ccccc2)c1=O | . | -2.9% | . | -14.8% | . | 28.6%
COc1ccccc1CNc1ccnc(-c2ccccc2OC)n1 | . | 1.2% | . | -22.5% | . | 9.7%
Cc1cnc(CNc2cc(-c3ccc4c(c3)OCO4)ncn2)cn1 | . | -7.7% | . | 21.8% | . | -13.0%
COC(=O)CN1CN(c2ccccc2)C2(CCN(Cc3ccc4ccccc4c3)CC2)C1=O | . | -1.0% | . | ? | . | 0.8%
COc1ccc(NS(=O)(=O)c2ccc(I)cc2)cc1N1CCN(C)CC1 | . | 0.0% | . | -24.5% | . | 2.2%
O=C(c1csnn1)N1CCC2(CCCN(Cc3ccccc3)C2)CC1 | . | 0.5% | . | -5.0% | . | 3.9%
Cc1noc(C)c1-c1cc(NCCN2CCOCC2)ncn1 | . | 0.4% | . | 12.5% | . | 9.3%
CCCCc1nc2ccn(CC(=O)N(C)C)c(=O)c2n1Cc1ccc(-c2ccccc2-c2nn[nH]n2)cc1 | . | -1.5% | . | -7.4% | . | 18.2%
COC(=O)N1CCC2(CCCN(c3ccc(-c4ccccc4)cc3)C2)CC1 | . | -4.7% | . | -12.7% | . | -5.2%
Nc1nc(O)c2ncn([C@H]3CC[C@@H](CO)O3)c2n1 | . | 1.3% | . | 4.8% | . | -1.3%
N#Cc1cccc(NC(=O)N2CC[C@@]3(CCCN(C(=O)c4cc(C(F)(F)F)cc(C(F)(F)F)c4)C3)C2)c1 | . | -4.2% | . | -16.1% | . | 29.6%
COc1cccc(Cn2c(=O)c(-c3cccs3)nc3cnc(OCc4ccccc4)nc32)c1 | . | 0.9% | . | -14.3% | . | -21.2%
CCCN=C(N)NCCC[C@H](N)C(=O)O | . | -0.7% | . | -8.9% | . | -3.3%
CC1=CC2OC3CC4OC(=O)C=CC=CC(C(C)O)OCC(O)C5(C)OC5C(=O)OCC2(CC1O)C4(C)C31CO1 (stereo not given) | -1.6% | . | ? | . | . | .
CC(=O)NC(c1cc(F)c2cccnc2c1O)C1CC1 (stereo not given) | . | . | . | ? | -10.1%&-6.2% | .
CC(=O)N1CCN(c2ccc(NCc3ccc(Br)o3)cc2)CC1 | . | . | . | -21.6% | 5.0% | .
CC(=O)NC(c1cc(Cl)c2cccnc2c1O)C(C)C (stereo not given) | . | . | . | -17.8% | 0.7%&1.7% | .
CC(C)(C)OC(=O)NCC(=O)NNC(=O)C(C(=O)OCc1ccccc1)c1ccccc1 (stereo not given) | . | . | . | -9.9% | 23.7% | .
Fc1ccccc1-c1nnc2n1N=C(c1ccc(OC(F)F)c(OCC3CC3)c1)CS2 | . | . | . | -4.0% | -12.1% | .
c1ccc(CN(Cc2ccccc2)Cc2nnc(-c3cc4ccccc4[nH]3)s2)cc1 | . | . | . | -29.1% | 4.0% | .
COc1ccc(OC)c(-c2nnc3n2N=C(c2ccc(OC)c(OC4CCOC4)c2)CS3)c1 (stereo not given) | . | . | . | -17.0% | -9.6% | .
Cc1nc(SCc2nc3ccc(Br)cc3[nH]2)c2oc3ccccc3c2n1 | . | . | . | -16.7% | -1.3% | .
O=C(O)c1cccc(-c2noc(-c3cccc(Cl)c3)n2)c1 | . | . | . | ? | -2.1%&7.0% | .
Cn1nnnc1Sc1ncnc2scc(-c3ccc(Cl)cc3)c12 | . | . | . | 20µM* | -2.9% | .
COc1ccc(OC)c(-c2nnc3n2N=C(c2ccc(OC)c(OCC4CC4)c2)CS3)c1 | . | . | . | 31.6µM* | -18.7% | .
O=C(c1ccc(-c2cc(O)c3ncccc3c2)cc1)N1CCNCC1 | . | . | . | 38.7%[activator] | -1.6%&-2.0% | .
Fc1cc(F)cc(Nc2nc(Cl)nc(NC3CCCC3)n2)c1 | . | . | . | ? | -0.1% | .
Cc1ccc(CNc2ccc(N3CCN(C)CC3=O)cc2)cc1 | . | . | . | 19.1% | -0.9% | .
CC(=O)NC(C)c1cc(Cl)c2ccccc2c1O (stereo not given) | . | . | . | 0.0% | 0.5% | .
NC(=O)c1ccnc2c(O)cccc12 | . | . | . | -19.5% | -4.6%&-1.6% | .
Cc1ccc(CSc2nnc(-c3cccc4ccccc34)o2)cc1 | . | . | . | -3.8% | -3.8% | .
CC(C)(C)n1ncc2c(=O)n(Cc3ccccc3Br)cnc21 | . | . | . | ? | 2.3% | .
Oc1cc(NCCN2CCOCC2)cc2cccnc12 | . | . | . | ? | 3.7%&-5.5% | .
O=S(=O)(c1cccc(Cl)c1)N1CCN(S(=O)(=O)c2ccc3c(c2)OCCO3)CC1 | . | . | . | 0.0% | -0.1% | .
O=C(Cn1cc(CNC(=O)C2CCCCC2)nn1)Nc1cc(C(F)(F)F)ccc1Cl | . | . | . | -7.9% | -36.1% | .
COc1ccc(OC)c(-c2nnc3n2N=C(c2ccc(OC)c(OC)c2)CS3)c1 | . | . | . | -11.0% | 3.5%&4.2% | .
N#Cc1nc(NCC(F)F)nc(Nc2cc(F)cc(F)c2)n1 | . | . | . | 11.2µM* | -1.4% | .

# More records.
Compound | RE007 growth inh | Cruzain Triton | Marburg entry inh | 2A StopGo | SARS PLpro yeast | Cruzain noTriton
CC(=O)N1CCN(c2ccc(NCc3ccco3)cc2)CC1 | . | . | . | 28.7% | -2.2% | .
CCn1cnc2c(Nc3cccc(Cl)c3)nc(C#N)nc21 | . | . | . | 3.4% | 1.2% | .
Cn1c2cc(Br)sc2c2cnn(Cc3c(F)cccc3Cl)c(=O)c21 | . | . | . | 39.6%[activator] | -3.0%&-0.8% | .
Cn1nnnc1Sc1ncnc2scc(-c3cccs3)c12 | . | . | . | 22.4µM* | 1.2% | .
O=C(O)CN1C(=O)N/C(=C\c2cccn2-c2ccc(P(=O)(O)O)cc2)C1=O | . | . | . | 12.4% | 3.5% | .
O=S(=O)(NCC1CN(S(=O)(=O)c2ccc3c(c2)OCCO3)C1)c1c(F)cccc1F | . | . | . | 23.5% | 10.5% | .
NC(=O)C1CCN(c2nc(-c3cccnc3)cs2)CC1 | . | . | . | -9.1% | 4.6%&-0.9% | .
CC(=O)NC(c1ccco1)c1cc(F)c2cccnc2c1O (stereo not given) | . | . | . | -23.3% | 9.3%&-4.7% | .
COc1cc(N)c(Cl)cc1C(=O)NC1CN2CCC1CC2 (stereo not given) | . | . | . | -13.9% | -7.3% | .
COc1ccc(C2=Nn3c(nnc3-c3ccccc3F)SC2)cc1OC1CCOC1 (stereo not given) | . | . | . | -14.3% | 17.8% | .
COc1ccccc1C(=O)OCC#CCSc1nnc(-c2cccc3ccccc23)o1 | . | . | . | -0.1% | 0.5%&-1.7% | .
Cc1cccc(-c2ccc3ncnc(NCc4cccs4)c3c2)c1 | . | . | . | 25.1µM* | 6.31µM*! | .
Cc1noc(C)c1-c1ccc2ncnc(NCC3CCCCN3C)c2c1 (stereo not given) | . | . | . | 16.7% | -0.8% | .
CC(=O)N1CCN(c2ccc(N)cc2)CC1 | . | . | . | -12.2% | -16.5% | .
O=C(c1c(F)cccc1F)N1CCN(S(=O)(=O)c2ccc3c(c2)OCCO3)CC1 | . | . | . | -30.0% | -9.4% | .
O=C(O)c1ccc(O)c2ncccc12 | . | . | . | 50.3%[activator] | -2.9% | .

# Single records, from the list above. Values in the order: RE007 growth inh | Cruzain Triton | Marburg entry inh | 2A StopGo | SARS PLpro yeast | Cruzain noTriton
# `Cn1c2cc(Br)sc2c2cnn(Cc3c(F)cccc3Cl)c(=O)c21` in the list: . | . | . | 39.6%[activator] | -3.0%&-0.8% | .
# `CC(=O)N1CCN(c2ccc(N)cc2)CC1` in the list: . | . | . | -12.2% | -16.5% | .
